# Tn6 DDE FP: inhibitors of Tn6 peptide binding to human fibrin DD(E). inhibition, % at 8.3 µM. Fibrin DD(E) TRITC-Tn6 fluorescence polarization displacement. AID 720509. actives 0.21% (n = 370,000). P02675;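 active means inhibition above a per-campaign cutoff: mean of compounds within control limits plus 3 SD, cut at about 15% in these data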;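 further: 0% = median of all compound wells on the plate and 100% = blocking peptide control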
# KLK7 zymogen act: activators of human kallikrein-7 zymogen. AID 652039. activation, % at 7 µM. actives 0.9% (n = 370,000). purified proKLK7, EDANS-DABCYL substrate fluorescence; 100% is mature enzyme control, 0% vehicle;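 active means activation above the mean of all tested compounds plus 3 SD, computed per campaign excluding outliers beyond control limits, cut at about 13% in these data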
# UHRF1 binding: blocks human UHRF1 binding to methylated DNA; UHRF1 binding to methylated oligo, TR-FRET; inhibition, % at 4.4 µM; actives 0.75% (n = 370,000); AID 687016; in the data active means inhibition above about 21%;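 further: UHRF1 SRA domain binding a hemimethylated CpG hairpin DNA probe; 0% = median of test compound wells and 100% = reference inhibitor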
# SIAE primary: inhibitors of human sialic acid acetylesterase SIAE | inhibition, % at 9.66 µM | actives 0.69% (n = 370,000) | SIAE FP-Rh probe binding, fluorescence polarization | Q9HAT2 | AID 1053197;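 active means inhibition above a cutoff: mean of compounds within the control limits plus 3 SD of those, cut at about 17% in these data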;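 further: 0% = plate median of compound wells and 100% = probe without SIAE protein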
# Target sequence (Q9HAT2 whole entry, looked up): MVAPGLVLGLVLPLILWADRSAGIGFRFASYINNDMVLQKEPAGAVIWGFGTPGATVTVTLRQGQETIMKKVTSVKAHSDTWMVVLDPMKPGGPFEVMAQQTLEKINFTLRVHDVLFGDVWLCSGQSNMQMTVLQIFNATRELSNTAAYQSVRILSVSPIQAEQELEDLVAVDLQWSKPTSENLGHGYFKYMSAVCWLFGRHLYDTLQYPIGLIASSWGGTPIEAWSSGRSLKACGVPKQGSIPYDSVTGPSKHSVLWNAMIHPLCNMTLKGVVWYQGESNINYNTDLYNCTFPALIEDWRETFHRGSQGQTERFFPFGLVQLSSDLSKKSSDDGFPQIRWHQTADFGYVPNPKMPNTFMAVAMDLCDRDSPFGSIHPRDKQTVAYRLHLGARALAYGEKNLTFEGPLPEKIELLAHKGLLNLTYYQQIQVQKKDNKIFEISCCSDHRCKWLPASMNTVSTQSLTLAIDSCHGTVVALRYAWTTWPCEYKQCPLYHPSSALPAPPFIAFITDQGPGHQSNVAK
# DDE Tn7 FP inh: DD(E)-Tn7 binding inhibition, primary FP screen; P02675; FP displacement of FITC-Tn7 peptide from fibrin DD(E); 0% = median of compound wells per plate; inhibition, % at 8.3 µM; actives 0.13% (n = 370,000); AID 720508;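 active means inhibition above the mean of compounds falling within the control limits plus 3 SD of them, cut at about 14% in these data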;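 further: 0% = plate median of compound wells and 100% = 10 µM Aha-Tn7 peptide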
#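 Assay system: human fibrin DD(E) protein / Input: 2 µM fibrin DD(E) / Benchmarks: high control of 10 µM Aha-Tn7 peptide / Measured by: fluorescence polarization of the labelled Tn7 tracer / Medium: Tris buffer with calcium and detergent, pH 7.8 / Timing: 10 min compound pre-incubation, 3 h probe incubation at room temperature / Repeats: one replicate per compound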
# An asterisk follows results filed as active; . = no result given; & = joins results of further samples.
# Start of the data: the first 3 entries as a preview:
no. | Compound | Tn6 DDE FP | KLK7 zymogen act | UHRF1 binding | SIAE primary | DDE Tn7 FP inh
1 | Cc1ccc(/C=C/C(=O)c2ccccc2)cc1 | -2 | 0.8 | 2 | -10 | -4
2 | CN[C@H]1CC[C@@H](c2ccc(Cl)c(Cl)c2)c2ccccc21 | -11&3 | 0.2&0.1 | 1&-1 | 0&-1 | -2&-4
3 | CCCNc1ncnc2c1cnn2C1CCCCO1 (stereo not drawn) | 1 | -0.2 | -1 | 3 | 1

# This part in full, previewed entries included:
no. | Compound | Tn6 DDE FP | KLK7 zymogen act | UHRF1 binding | SIAE primary | DDE Tn7 FP inh
1 | Cc1ccc(/C=C/C(=O)c2ccccc2)cc1 | -2 | 0.8 | 2 | -10 | -4
2 | CN[C@H]1CC[C@@H](c2ccc(Cl)c(Cl)c2)c2ccccc21 | -11&3 | 0.2&0.1 | 1&-1 | 0&-1 | -2&-4
3 | CCCNc1ncnc2c1cnn2C1CCCCO1 (stereo not drawn) | 1 | -0.2 | -1 | 3 | 1
4 | CN1[C@@H]2CC[C@H]1CC(OC(=O)C(CO)c1ccccc1)C2 (stereo partly drawn) | -2 | -0.2 | -1 | -3 | 8
5 | CC(=O)Nc1sc2c(c1-c1nc3ccccc3s1)CN(C(C)C)C2 | -7 | . | -5 | 1 | 6
6 | NC(N)=Nc1nc2ccc([N+](=O)[O-])cc2[nH]1 | 1 | -0.3 | -3 | 3 | 1
7 | CCOC(=O)c1c(C)oc2ccc(O)cc12 | 4 | -0.3 | 1 | -6 | 7
8 | CN(C)CCOC(c1ccccc1)c1ccccc1 | 4&2 | -0.7&0.1 | -1&0 | -3&-5 | -3&-10
9 | CCCCNc1ccc(C(=O)O)cc1 | -2 | -0.4 | 0 | 9 | 1
10 | O=C(O)C1CCN(S(=O)(=O)/C=C/c2ccccc2)CC1 | -6 | 0.1 | 1 | -6 | -6
11 | CC(=O)O[C@H]1C(=O)[C@@]2(C)C([C@H](OC(=O)c3ccccc3)[C@]3(O)C[C@H](OC(=O)[C@H](O)[C@@H](NC(=O)c4ccccc4)c4ccccc4)C(C)=C1C3(C)C)[C@]1(OC(C)=O)CO[C@@H]1C[C@H]2O (stereo partly drawn) | -3 | 0.1 | 1 | -23 | 7
12 | CN1[C@@H]2CC[C@H]1CC(OC(=O)[C@H](CO)c1ccccc1)C2 (stereo partly drawn) | 8 | 0.3 | 2 | 0 | 1
13 | C[C@@H]1C[C@H]2[C@@H]3CCC4=CC(=O)C=C[C@]4(C)[C@@]3(F)[C@@H](O)C[C@]2(C)[C@@]1(O)C(=O)CO | 0 | 0.8 | 0 | 3 | -5
14 | COc1ccc(Cn2cc(C(=O)O)c(=O)c3ccccc32)cc1 | -9 | 0.1 | 2 | 13 | 1
15 | CCCCn1nnnc1C1(C)CCC(=O)N1CCCn1ccnc1 (stereo not drawn) | 11 | 1.1 | 17 | 7 | 2
16 | CCOC(=O)C1=C(C)NC2(O)c3ccccc3C(=O)C12O (stereo not drawn) | 1 | 0.1 | -5 | 2 | 3
17 | COc1cccc(N2CCN(CC(=O)Nc3ccc(-n4cnnn4)cc3)CC2)c1 | 3 | -0.3 | 1 | 5 | 0
18 | Cc1nn(-c2ccccc2)c(Cl)c1/C=N/NC(=O)c1ccncc1 | 0 | -0.5 | -3 | 12 | -6

# Compound profiles, from the list above:
# CCCCNc1ccc(C(=O)O)cc1 is listed with Tn6 DDE FP: -2; KLK7 zymogen act: -0.4; UHRF1 binding: 0; SIAE primary: 9; DDE Tn7 FP inh: 1
# CCOC(=O)C1=C(C)NC2(O)c3ccccc3C(=O)C12O (stereo not drawn) is listed with Tn6 DDE FP: 1; KLK7 zymogen act: 0.1; UHRF1 binding: -5; SIAE primary: 2; DDE Tn7 FP inh: 3

# From PubChem BioAssay

# Not all compounds are listed; rates above refer to the full screens.
